VDR inh – Inhibitors of the vitamin D receptor (VDR): qHTS; Vitamin D3 receptor (Homo sapiens), P11473; Potency, µM, for the others: max response, negative = inhibition, hits mostly inhibitors; VDR-SRC2-3 peptide fluorescence polarization, 2 h; 400,000 tested, 0.93% active; active = well fitted inhibition curve with a large enough effect; inconclusive = small, poorly fitted or top-dose-only effect, or another doubt; inactive = no such curve, though single readings can be large or run the other way; note: series mostly up to about 120 µM
Target sequence (P11473 whole entry, looked up): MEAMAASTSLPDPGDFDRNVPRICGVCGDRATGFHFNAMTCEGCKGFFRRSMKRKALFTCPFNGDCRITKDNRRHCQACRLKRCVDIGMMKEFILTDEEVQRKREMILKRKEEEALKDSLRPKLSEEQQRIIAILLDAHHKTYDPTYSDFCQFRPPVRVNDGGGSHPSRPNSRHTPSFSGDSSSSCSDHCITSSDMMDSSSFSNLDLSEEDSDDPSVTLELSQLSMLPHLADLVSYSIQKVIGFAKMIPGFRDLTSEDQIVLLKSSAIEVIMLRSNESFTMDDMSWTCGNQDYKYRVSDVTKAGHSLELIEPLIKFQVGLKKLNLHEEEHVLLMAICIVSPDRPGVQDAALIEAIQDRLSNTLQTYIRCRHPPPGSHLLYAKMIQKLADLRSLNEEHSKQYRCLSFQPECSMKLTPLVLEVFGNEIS
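The screen uses fluorescence polarization to detect compounds that interfere with recruitment of the SRC2-3 coactivator peptide to VDR; plates are read after 2 h at room temperature.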
Starred values were filed as active, the others as inactive; ? = inconclusive; & = joins results of further samples. % is set by controls: 0 for no effect and ±100 for the full control effect; potency is the fitted concentration of half-maximal effect. These rows are one share of the data; count on the stated rates, not on these rows.

| Compound | VDR inh |
| --- | --- |
| CCOC(=O)c1c(CN2CCOCC2)n(C)c2cc(Br)c(O)c(CN(C)C)c12 | 7%&14% |
| O=C(C[n+]1cccc(C(=O)N/N=C/c2ccc(Br)cc2)c1)c1ccccc1 | -1% |
| CC(C)n1c(=O)c2oc3ccccc3c2n(CC(=O)Nc2ccccc2Cl)c1=O | 6% |
| O=C(CCc1ccccc1)NNC(=O)c1ccc(F)cc1 | -2% |
| COC(=O)c1cccc(C(=O)N2CCCC(CCC(=O)N(C)CCc3ccccn3)C2)c1 (stereo unspecified) | 27% |
| CC1SCCN1S(=O)(=O)c1ccc2ccccc2c1 (stereo unspecified) | -7% |
| O=C(CCCN1C(=O)C(c2ccccc2)Oc2cccnc21)NCc1ccc(F)cc1 (stereo unspecified) | -12% |
| Brc1ccc2c(c1)C(c1cccnc1)=NNC(c1cccs1)=N2 | -6% |
| COc1cc(/C=N/NC(=O)c2ccc3ccccc3c2)ccc1Oc1ccc([N+](=O)[O-])cn1 | -5% |
| COc1ccc(CC(=O)Oc2ccc(C)cc2Br)cc1S(=O)(=O)N1CCOCC1 | -2% |
| CCOc1ccc(NS(=O)(=O)c2ccc(C(=O)N(C)Cc3cccc(OC)c3OC)cc2)cc1 | -13% |
| O=C(Nc1ccon1)c1cnc2sccn2c1=O | 11% |
| Cc1nn2c(=O)cc(COC(=O)c3cccs3)nc2s1 | 11% |
| COc1ccc(C(=O)NC(=S)NCc2ccco2)cc1 | -14% |
| Cc1cc(OCC(=O)Nc2sc3c(c2C#N)CC(C)(C)NC3(C)C)c(C(C)C)cc1Cl | -3% |
| COc1cccc(NC(=O)CN(c2cccc(OC)c2)S(C)(=O)=O)c1 | 9% |
| COc1ccc(/C=N\NC(=O)CCN2CCN(c3ccccc3)CC2)cc1OC | -12% |
| Cc1noc(C)c1S(=O)(=O)N1CCC(Cc2ccccc2)CC1 | -6% |
| CCCN(C(=O)c1cc(S(=O)(=O)N(C)c2ccccc2OC)ccc1C)C1CCS(=O)(=O)C1 (stereo unspecified) | 8% |
| Cc1nc(Cl)sc1C(=O)Nc1ccccc1 | -6% |
| COc1ccc(CN2C(=O)CCC(C(=O)O)C2c2ccccc2)cc1 (stereo unspecified) | 4% |
| CCOCCc1nn2c(=O)cc(CSCC(=O)Nc3cc(C)cc(C)c3)nc2s1 | 0% |
| O=C(Cn1c(C(=O)N2CCN(C3CCCCC3)CC2)cc2sccc21)c1ccccc1 | 2% |
| COc1cccc(Cn2c(NCc3cccnc3)nc3c2c(=O)n(C)c(=O)n3C)c1 | 5% |
| CC(C)Oc1ccccc1C1Nc2ccccc2C(=O)N1c1ccc2c(c1)OCCO2 (stereo unspecified) | -1% |
| COc1ccc(C(=O)c2ccccc2)c(OCC(=O)NC2CC2)c1 | 2% |
| COc1ccc(C2C(=O)N(CCc3ccccc3)CC(=O)N2C2CCCC2)cc1 (stereo unspecified) | -5% |
| CCCC(C(=O)NCC1CCCO1)N(Cc1ccco1)C(=O)CNS(=O)(=O)c1ccc(F)cc1 (stereo unspecified) | -13% |
| O=C(NCc1ccccc1Cl)NC(=O)c1csc([N+](=O)[O-])c1 | 10% |
| CCn1nc(C)c([N+](=O)[O-])c1C(=O)NNC(=O)c1ccccc1Cl | -5% |
| COc1ccc(CCNC(=O)c2cnc3ccccc3n2)cc1 | 17% |
| O=C(Cn1ncc2c([nH]c3ccccc32)c1=O)N1CCN(c2ccc(F)cc2)CC1 | -19% |
| CCN(c1ccc(OC)cc1)S(=O)(=O)c1nnc(NC(=O)COc2ccccc2)s1 | -9% |
| COc1ccc(/C=C/C(=O)O)cc1S(=O)(=O)N1CCC(Cc2ccccc2)CC1 | 8% |
| COc1ccc(CN(Cc2ccco2)C(=O)c2ccccc2F)cc1 | 6% |
| Cc1ccc(NC(=O)C2CCCN(S(=O)(=O)c3c(C)noc3/C=C/N(C)C)C2)cc1F (stereo unspecified) | -8% |
| Cc1ccc(S(=O)(=O)NCc2nnc(SCC(=O)Nc3cccc(C)c3C)n2C)cc1 | 14% |
| Cc1ccc(C)c(N2CCN(CCCNC(=O)Cn3c(-c4cccs4)cc4ccccc43)CC2)c1 | 8% |
| Cn1c(/C(C#N)=C(\O)c2ccc(Br)s2)nc2ccccc21 | 4% |
| O=C(/C=C/c1ccc(O)c(O)c1)c1ccc(S(=O)(=O)N2CCCCCC2)cc1 | 79µM* |
| COc1ccccc1C1CC(c2ccc(C)cc2)Nc2ncnn21 (stereo unspecified) | 6% |
| O=C(NNc1c(Cl)cccc1Cl)c1sccc1Cl | -11% |
| COC(=O)/C(C#N)=C1/C=Cc2ccccc2N1 | -13% |
| O=C(NC(=O)c1ccc(Cl)c(Cl)c1)OC1CCS(=O)(=O)C1 (stereo unspecified) | -5% |
| CCCc1nc(SCC(=O)N2CCOCC2)c2c(C)c(C)sc2n1 | 0% |
| CC1CCc2c(sc3ncnc(NS(=O)(=O)c4cccs4)c23)C1 (stereo unspecified) | -11% |
| COCCSc1nnc(NC(=O)C2CC(=O)N(c3ccc(OC)cc3)C2)s1 (stereo unspecified) | -6% |
| Cc1cc(/C=C(\C#N)C(=O)Nc2ccccc2F)c(C)[nH]1 | -14% |
| COc1cccc(C(=O)OC2CCCN(C)C2)c1 (stereo unspecified) | 5% |
| CC1CCN(C(=S)NC(=O)c2ccc(F)cc2)CC1 | 15% |

Remaining list, next part
| Compound | VDR inh |
| --- | --- |
| COc1ccc(C2=NOC(C)(c3nnc(Cc4ccccc4)o3)C2)cc1 (stereo unspecified) | -3% |
| O=C(O)CCCCCN1C(=O)/C(=C\c2ccc(-c3ccc(Cl)cc3)o2)SC1=S | 8% |
| O=C(OCCN1C(=O)c2ccccc2C1=O)C1CC(O)CN1S(=O)(=O)c1ccc(Cl)cc1 (stereo unspecified) | 0% |
| CCN1CCC(O)(/C=C/c2ccc(C)cc2)C(C(=O)/C=C/c2ccc(C)cc2)C1 (stereo unspecified) | 25µM* |
| COc1ccccc1Nc1nc(N)nc(CSC(=S)N2CCOCC2)n1 | 6% |
| CC(C)NC(=O)CC(=O)Nc1ccc2nc3n(c(=O)c2c1)CCCCC3 | -19% |
| C[C@H]1CN([C@@H](C)CO)C(=O)c2cccc(NC(=O)Nc3ccc(C(F)(F)F)cc3)c2O[C@@H]1CN(C)Cc1ccc(Cl)c(Cl)c1 | -19% |
| NS(=O)(=O)c1ccc(CCNS(=O)(=O)c2ccc(Cl)nc2)cc1 | 0% |
| COc1cc(CO)ccc1Oc1nc2ccccc2n2cnnc12 | -8% |
| CCOC(=O)Nc1ccc2c(c1)ncn2C1CCCCC1 | 10% |
| CCOc1ccc(-c2nnc(NC(=O)C3CCCC3)o2)cc1 | -17% |
| COC(=O)c1cccc(NC(=O)CN2CCOCC2)c1 | -2% |
| O=C(Cn1ccc(=O)[nH]c1=O)NCCO | -14% |
| COc1cc(C2=NOC(C(=O)Nc3cccnc3)C2)cc(OC)c1OC (stereo unspecified) | -10% |
| CC(=O)c1c(C)[nH]c(C(=O)Nc2cccc(S(=O)(=O)N3CCCCC3)c2)c1C | -11% |
| O=C(O)c1ccc(Nc2nc3ccccc3nc2NS(=O)(=O)c2cccs2)cc1 | -11% |
| COc1cc(C(O)P(=O)(OCC(C)C)OCC(C)C)cc(OC)c1OC (stereo unspecified) | -8% |
| Cc1cc(C)cc(OCC(=O)Nc2ccc3c(c2)OCCO3)c1 | -14% |
| COC(=O)c1ccccc1NC(=O)C/C(C)=N/NC(=O)CC#N | 1% |
| O=C(/C=C/c1ccccc1)N1c2ccccc2Sc2ccc(C(F)(F)F)cc21 | -20% |

Next entries
| SMILES | VDR inh |
| --- | --- |
| Cc1ccc(-c2nnc(COc3cccc(-n4cnnn4)c3)o2)cc1 | 0% |
| CC(=O)Nc1cccc(OCCCNC(=O)c2ccc(F)cc2)c1 | 1% |
| O=C(OCc1ccccc1)C1CCCN1C(=O)c1ccccc1[N+](=O)[O-] (stereo unspecified) | -3% |
| CCNS(=O)(=O)c1ccc(CCC(=O)NCc2cccnc2)cc1 | ? |
| CCc1ccc(C2N3CC4(C)CN2CC(c2ccccc2)(C3)C4=O)cc1 (stereo unspecified) | 5% |
| CCc1c(C)nc2ncnn2c1Nc1ccc(C#N)c(Cl)c1 | -15% |
| Cc1ccc(CNC(=O)c2cc(S(=O)(=O)N3CCCC(C)C3)cn2C)cc1 (stereo unspecified) | 16% |
| COc1ccccc1-n1c(-c2cn(C)nc2C)n[nH]c1=S | -6% |
| S=C(Nc1ccccn1)Nc1ccccc1Cl | -25% |
| NC(=O)c1nn(-c2ccc(Cl)cc2Cl)c(=O)cc1O | -7% |
| CC(=O)c1ccc(Nc2c3c(nc4ccccc24)CCCC3)cc1 | 14% |
| COc1ccc(-c2nc(CNC(=O)Nc3ccccc3)c(C)o2)c(OC)c1 | 10% |
| Cc1cccc(OCC(=O)N(Cc2cccs2)c2ccc(Cl)cc2)c1C | 2% |
| CN(CC(=O)Nc1ccc(N2CCOCC2)cc1)C(=O)CCNC(=O)c1ccc(Br)cc1 | -3% |
| COCCCNC(=S)N1CCC(C(=O)c2ccc3c(c2)OCCO3)CC1 | 14% |

Some of the entries above in a different format.
structure: O=C(OCc1ccccc1)C1CCCN1C(=O)c1ccccc1[N+](=O)[O-] (stereo unspecified)
- VDR inh: -3%
structure: CCNS(=O)(=O)c1ccc(CCC(=O)NCc2cccnc2)cc1
- VDR inh: ?
structure: CCc1ccc(C2N3CC4(C)CN2CC(c2ccccc2)(C3)C4=O)cc1 (stereo unspecified)
- VDR inh: 5%
structure: CCc1c(C)nc2ncnn2c1Nc1ccc(C#N)c(Cl)c1
- VDR inh: -15%

Next section
| SMILES | VDR inh |
| --- | --- |
| O=C(COC(=O)C1CCN(S(=O)(=O)c2cccs2)CC1)Nc1ccc(F)cc1F | -3% |
| O=C(NCc1cccnc1)C1CCCN(S(=O)(=O)c2cccc3nsnc23)C1 (stereo unspecified) | -11% |
| CN1CCCN(S(=O)(=O)c2cccc(C(F)(F)F)c2)c2nc3ccccc3nc21 | -3% |
| O=C(N/N=C1\CCCc2ccccc21)c1cccc([N+](=O)[O-])c1 | -2% |
| CC(C)Oc1ccc(C(=O)Nc2ccc([N+](=O)[O-])cc2)cc1 | 10% |
| CCOC(=O)C1(CCCc2ccccc2)CCN(C(=O)c2cnc(C)cn2)CC1 | 5% |
| CC(=O)Nc1ccccc1OCC(=O)NCCC1=CCCCC1 | -11% |
| CC[C@H](C)[C@H](NC(N)=O)C(=O)Nc1ccc(C)cc1 | -10% |
| O=C(C1CC1)N1CCN(c2ccc(F)cc2)CC1 | -4% |
| Cc1nn(C)c2ncc(C(N)=O)c(Oc3ccc(Cl)cc3)c12 | -9% |
| CCc1ccc(NC(=O)CNC(=O)c2cn(-c3ccccc3OC)c(=O)c3ccccc23)cc1 | 8% |
| COc1ccc(C(=O)NCc2nnc(SCC(=O)Nc3cc(C)on3)o2)cc1OC | 9% |
| CCOC(=O)c1cc(-c2ccc(OC(F)F)cc2)nc2nc(SC)[nH]c(=O)c12 | -11% |
| O=C(CCCC(=O)N(CC(=O)NC1CCCCC1)c1ccc(F)cc1)Nc1ccccn1 | -11% |
| Nc1nc(Nc2ccccc2)nc(NCc2ccccc2)c1[N+](=O)[O-] | -12% |

Individual results from the list:
Value of `Cc1nn(C)c2ncc(C(N)=O)c(Oc3ccc(Cl)cc3)c12` in VDR inh: -9%
Value of `CN1CCCN(S(=O)(=O)c2cccc(C(F)(F)F)c2)c2nc3ccccc3nc21` in VDR inh: -3%

Remaining list, next part
| SMILES | VDR inh |
| --- | --- |
| CCOC(=O)c1c(C)[nH]c(C)c1C(=O)CN1C(=O)NC2(CCC(C)CC2)C1=O (stereo unspecified) | 0% |
| Cc1cc(C)cc(Nc2cc(-c3ccccc3)nc(C)n2)c1 | -7% |
| Cc1ccc(C(=O)NCCSCc2ccccc2)cc1[N+](=O)[O-] | -4% |
| Nc1nonc1-c1nc2ccccc2n1Cc1c(Cl)cccc1Cl | -11% |
| COc1ccc(/C=C(\C#N)C(=O)Nc2cc(S(=O)(=O)N3CCCCC3)ccc2N2CCCCC2)cc1 | -3% |
| Cc1cccc(C2c3[nH]c4ccccc4c3CCN2C(=O)c2noc3c2CCCC3)n1 (stereo unspecified) | -7% |
| CC1CN(S(=O)(=O)c2cccc(C(=O)NCc3ccco3)c2)CC(C)O1 (stereo unspecified) | -7% |
| NC(=O)c1nc(Nc2ccccc2)sc1NC(=O)c1c(F)cccc1F | 4% |
| CCOC(=O)N1CCN(C(=O)CN(C)S(=O)(=O)c2ccc(OCC)cc2)CC1 | -9% |
| COc1ccccc1C(=O)NCC(=O)OC(C)C(=O)NC(=O)NC1CCCCC1 (stereo unspecified) | -6% |
| Cc1c(CC(=O)N2CCC(C(N)=O)CC2)c(=O)oc2cc3c(cc12)CCC1(CCCCC1)O3 | -4% |
| CN1CCN(C(=O)c2cc3c(n(-c4ccccc4)c2=O)CC(C)(C)CC3=O)CC1 | 1% |
| C=C1C(C(=O)N2CCOCC2)C1C(=O)N1CCOCC1 (stereo unspecified) | 12% |
| CC(=O)Nc1c(C)nn(-c2ccccc2)c1N1CCC(C(=O)Nc2cc(F)ccc2F)CC1 | -3% |
| CCOCCOC(=O)NCCCCCCNC(=O)OCCOCC | ? |
| Cc1cc(NS(=O)(=O)c2ccc(NC(=O)Nc3cccc(Cl)c3)cc2)no1 | 2% |
| COC(=O)/C=C1\N/C(=N\c2nc(C)cc(C)n2)N(c2ccc(C)c(C)c2)C1=O | ? |
| COc1ccc(C(=O)Nc2ccccc2-c2nnn(CC(=O)Nc3ccc4c(c3)OCCO4)n2)cc1 | -1% |
| O=C(COC(=O)c1ccc(CO)cc1)NCc1cccs1 | -8% |
| CC(=O)Nc1ccc(C=CC=Cc2cccc([N+](=O)[O-])c2)cc1 | ? |
| O=S(=O)(NC1=NCCCCC1)c1cccs1 | 0% |
| O=C(N=Nc1c(O)[nH]c2ccc(Br)cc12)c1cc(-c2cccc3ccccc23)n[nH]1 | -3% |
| Cc1ccc(S(=O)(=O)N2CCOCC2)cc1NC(=O)CSc1cccc[n+]1[O-] | 2% |
| COc1ccc(C(=O)Nc2ccccc2C(=O)NC(Cc2ccc(O)cc2)C(=O)NNC(=O)c2ccc(C)cc2)cc1 (stereo unspecified) | -7% |
